Source: PubChem
Myc binder: binders of human c-Myc | P01106 | small molecule microarray, His-c-Myc binding, anti-His fluorescence | calls only | 17,000 tested, 1.5% active | AID 624141;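 active = spot fluorescence over background with P-value below 7% in all four replicate spots, showing protein binding; compounds were printed on slides so no solution concentration is given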;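 note: score is binary with 100 for all four spots passing and 0 otherwise; about 2 pmol printed per array spot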
STAT3 SMM: STAT3 (human) binding; calls only; Small molecule microarray, His-STAT3 binding, anti-His fluorescence; 17,000 tested, 0.2% active;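 active = compounds whose four printed spots each show fluorescence over background unusually high for their array block, chance value under 7%; compounds were printed on slides so no solution concentration is given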;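 note: about 2 pmol printed per array spot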
Target sequence (P40763 whole entry, looked up): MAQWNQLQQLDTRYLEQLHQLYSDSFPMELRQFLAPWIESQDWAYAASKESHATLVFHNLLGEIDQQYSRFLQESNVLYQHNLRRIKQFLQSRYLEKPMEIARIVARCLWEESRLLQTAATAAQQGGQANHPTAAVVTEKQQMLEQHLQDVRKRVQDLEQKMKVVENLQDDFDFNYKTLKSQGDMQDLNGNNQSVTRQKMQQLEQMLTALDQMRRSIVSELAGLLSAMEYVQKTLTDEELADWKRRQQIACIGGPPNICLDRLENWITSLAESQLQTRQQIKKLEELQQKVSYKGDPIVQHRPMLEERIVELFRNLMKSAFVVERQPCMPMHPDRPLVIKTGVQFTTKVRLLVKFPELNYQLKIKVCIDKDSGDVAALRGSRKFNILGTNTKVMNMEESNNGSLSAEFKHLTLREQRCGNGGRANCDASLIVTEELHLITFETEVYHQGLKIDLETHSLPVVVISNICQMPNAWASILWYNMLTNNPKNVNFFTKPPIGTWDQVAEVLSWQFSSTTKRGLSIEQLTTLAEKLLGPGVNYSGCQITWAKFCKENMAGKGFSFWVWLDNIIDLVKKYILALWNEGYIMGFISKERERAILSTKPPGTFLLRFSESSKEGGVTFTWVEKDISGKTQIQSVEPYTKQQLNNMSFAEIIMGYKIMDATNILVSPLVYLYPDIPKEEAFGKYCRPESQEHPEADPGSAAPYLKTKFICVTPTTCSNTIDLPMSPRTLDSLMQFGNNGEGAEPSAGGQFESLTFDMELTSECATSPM
mut p53 SMM: binders of human mutant p53. small molecule microarray binding, anti-GST fluorescence. calls only. 17,000 tested, 0.4% active. AID 624136;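 active = compounds whose four printed spots each glow above background more than chance allows, each with a p-value under 7%; compounds were printed on slides so no solution concentration is given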;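 note: about 2 pmol printed per array spot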
ID4 binder: ID4 (human) binding. small molecule microarray, Flag-ID4 binding, fluorescence F/B. calls only. 31,000 tested, 1.2% active;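 active = spot signal over background at p below 0.07 in all four prints; compounds were printed on slides so no solution concentration is given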;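 note: a binder raises fluorescence above local background on the spot; about 2 pmol printed per array spot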
Target sequence (P47928 whole entry, looked up): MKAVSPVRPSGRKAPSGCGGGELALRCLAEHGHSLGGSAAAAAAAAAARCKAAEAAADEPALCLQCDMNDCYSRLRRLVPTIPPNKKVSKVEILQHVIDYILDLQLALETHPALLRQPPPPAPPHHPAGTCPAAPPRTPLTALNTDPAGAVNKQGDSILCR
Calls only; i = inactive; x = no result given; + = active, no number.

Second line of a record – Myc binder	STAT3 SMM	mut p53 SMM	ID4 binder
COC(=O)CCSc1nc2sc3c(c2c(=O)n1-c1cccc(C)c1)CC(C)(C)OC3
  i	i	i	i
C[C@H]1CCCCO[C@@H](CN(C)C(=O)Nc2ccccc2)[C@@H](C)CN([C@@H](C)CO)C(=O)c2cc(NC(=O)c3ccncc3)ccc2O1
  i	i	i	+
COc1ccc(S(=O)(=O)Nc2ccc3c(c2)CC(=O)N([C@H](C)CO)C[C@H](C)[C@@H](CN(C)C(=O)Nc2c(C)noc2C)O3)cc1
  i	i	i	x
C[C@H](CO)N1C[C@H](C)[C@H](CN(C)Cc2ccc3c(c2)OCO3)Oc2ncc(C#Cc3ccccc3)cc2C1=O
  i	i	i	i
O=C(Nc1ccccc1)C1=C[C@H](c2ccc3c(c2)OCO3)C[C@H](OCc2ccc(CO)cc2)O1
  i	i	i	x
O=C(O)CCc1nn2cnc3sc4c(c3c2nc1=O)CCCC4
  i	i	i	i
Cc1nc(SCc2csc(C)n2)c2c3c(sc2n1)CCCC3
  i	i	i	i
Cc1noc(C)c1S(=O)(=O)N(C)C[C@H]1OCc2cnnn2CCCC(=O)N([C@H](C)CO)C[C@H]1C
  i	i	i	i
C[C@@H]1CCCCO[C@@H](CN(C)C)[C@H](C)CN([C@H](C)CO)C(=O)c2cc(NS(=O)(=O)c3ccc(Cl)cc3)ccc2O1
  i	i	i	i
C[C@@H]1CN([C@H](C)CO)C(=O)Cc2cc(NC(=O)C3CC3)ccc2O[C@H]1CN(C)Cc1ccc(-c2ccccc2)cc1
  i	i	i	x
C[C@H]1CCCCO[C@@H](CN(C)Cc2ccncc2)[C@@H](C)CN([C@@H](C)CO)C(=O)c2cc(NC(=O)Nc3cccc4ccccc34)ccc2O1
  i	i	i	i
C[C@@H]1CCCCO[C@@H](CN(C)C(=O)c2ccccc2)[C@H](C)CN([C@@H](C)CO)C(=O)c2cc(NS(=O)(=O)c3cn(C)cn3)ccc2O1
  i	i	i	i
COC(=O)C(CC#Cc1ccc2c(c1)[C@]1(C(=O)N2)[C@H](C(N)=O)[C@H]2C(=O)O[C@H](c3ccccc3)[C@H](c3ccccc3)N2[C@@H]1c1ccc(O)cc1)C(=O)OC
  i	i	i	i
Cc1noc(C)c1S(=O)(=O)N(C)C[C@@H]1Oc2ccc(NC(=O)Nc3ccccc3)cc2CC(=O)N([C@@H](C)CO)C[C@@H]1C
  i	i	i	i
N#C/C(=C/c1ccc(O)c(O)c1)C(=O)Nc1ccccc1
  i	i	i	i
C[C@@H]1CN([C@H](C)CO)C(=O)CCCn2nncc2CO[C@@H]1CN(C)C(=O)Nc1ccccc1F
  i	i	i	i
C[C@@H]1CCCCO[C@H](CN(C)C(=O)Nc2ccc(C(F)(F)F)cc2)[C@@H](C)CN([C@H](C)CO)C(=O)c2cc(NC(=O)Nc3ccc(C(F)(F)F)cc3)ccc2O1
  i	i	i	x
C[C@@H]1CN([C@H](C)CO)C(=O)c2cc(NC(=O)Nc3ccc(F)cc3)ccc2O[C@H]1CN(C)C(=O)NC1CCCCC1
  i	i	i	i
C[C@@H]1CCCCO[C@@H](CN(C)Cc2ccccc2)[C@@H](C)CN([C@@H](C)CO)C(=O)c2cc(NS(=O)(=O)c3ccccc3)ccc2O1
  i	i	i	i
O=C(CCc1ccccc1)CC(CCc1ccccc1)OC1OC(COC2OC(CO)C(O)C(O)C2O)C(O)C(O)C1O (stereo not drawn)
  i	i	i	x
C[C@@H]1CCCCO[C@H](CN(C)Cc2ccccc2)[C@@H](C)CN([C@@H](C)CO)C(=O)c2cc(NS(=O)(=O)c3ccccc3)ccc2O1
  i	i	i	i
C[C@@H]1CN([C@@H](C)CO)C(=O)c2cccc(NC(=O)Nc3ccc(C(F)(F)F)cc3)c2O[C@H]1CN(C)S(=O)(=O)c1cn(C)cn1
  +	i	i	i
C[C@H]1CN([C@@H](C)CO)C(=O)c2cccc(NC(=O)Nc3ccc(C(F)(F)F)cc3)c2O[C@H]1CN(C)C(=O)Nc1ccccc1
  i	i	i	x
NC(=O)NCC#Cc1ccc2c(c1)[C@]1(C(=O)N2)[C@H](C(=O)Nc2nc3ccccc3s2)[C@H]2C(=O)O[C@H](c3ccccc3)[C@H](c3ccccc3)N2[C@@H]1c1ccc(OCCO)cc1
  i	i	i	i
CNC[C@@H]1Oc2ccc(NS(=O)(=O)c3cn(C)cn3)cc2CC(=O)N([C@@H](C)CO)C[C@H]1C
  i	i	i	i
CNC[C@H]1Oc2c(NC(=O)Nc3c(C)noc3C)cccc2C(=O)N([C@H](C)CO)C[C@H]1C
  i	i	i	i
C[C@@H]1CCCCO[C@@H](CN(C)C(=O)Cc2ccccc2)[C@@H](C)CN([C@H](C)CO)C(=O)c2cc(NS(C)(=O)=O)ccc2O1
  i	i	i	i
COCCOC(=O)N1C(=O)[C@@]2(c3ccccc31)[C@H](C(=O)NC[C@H](O)c1ccccc1)[C@H]1C(=O)O[C@H](c3ccccc3)[C@H](c3ccccc3)N1[C@@H]2c1ccc(O)cc1
  i	i	i	x
C[C@@H]1CN([C@H](C)CO)C(=O)Cc2cc(NC(=O)CCN3CCOCC3)ccc2O[C@H]1CN(C)S(=O)(=O)c1ccccc1
  i	i	i	i
CNC[C@@H]1Oc2ccc(NC(=O)NC3CCCCC3)cc2C(=O)N([C@@H](C)CO)C[C@H]1C
  i	i	i	i
CCOC(=O)c1c(NC(=O)C2COc3ccccc3O2)sc(C)c1C (stereo not drawn)
  i	i	i	i
CNC[C@@H]1OCCCC[C@@H](C)Oc2ccc(NC(=O)Nc3cccc4ccccc34)cc2C(=O)N([C@H](C)CO)C[C@@H]1C
  i	i	i	i
Cc1ccc(OCC(=O)Nc2cc(-c3nc4cc(C)c(C)cc4o3)ccc2C)cc1
  i	i	i	i
COc1ccc(S(=O)(=O)N(C)C[C@H]2Oc3ccc(NC(=O)Nc4ccc(C(F)(F)F)cc4)cc3CC(=O)N([C@@H](C)CO)C[C@H]2C)cc1
  i	i	i	i
C[C@H]1CCCCO[C@@H](CN(C)C(=O)Nc2ccccc2)[C@@H](C)CN([C@@H](C)CO)C(=O)c2cc(NS(=O)(=O)c3ccc(Cl)cc3)ccc2O1
  i	i	i	x
Cc1onc(-c2ccccc2Cl)c1C(=O)NCCc1ccc(S(N)(=O)=O)cc1
  i	i	i	i
CC(C)NC(=O)N(C)C[C@H]1Oc2ccc(NC(=O)CCN3CCOCC3)cc2CC(=O)N([C@H](C)CO)C[C@@H]1C
  i	i	i	i
C[C@@H]1CCCCO[C@@H](CN(C)S(=O)(=O)c2cccs2)[C@@H](C)CN([C@@H](C)CO)C(=O)c2cc(NS(C)(=O)=O)ccc2O1
  i	i	i	i
COc1ccc(S(=O)(=O)N(C)C[C@@H]2Oc3ccc(NC(=O)CCC(F)(F)F)cc3C(=O)N([C@H](C)CO)C[C@H]2C)cc1
  i	i	i	i
COC(=O)c1c(NC(=O)Cn2cc([N+](=O)[O-])cn2)sc2c1CCCC2
  i	i	i	i
Cc1noc(C)c1NC(=O)N(C)C[C@@H]1OCCCC[C@H](C)Oc2ccc(NC(=O)c3ccncc3)cc2C(=O)N([C@@H](C)CO)C[C@@H]1C
  i	i	i	i
O=C(O)CC(C(=O)OC1CCCCC1)N1CCOCC1 (stereo not drawn)
  i	i	i	i
CN1C(=O)C(CC(=O)Nc2ccc(F)cc2)N(Cc2ccco2)C1=S (stereo not drawn)
  i	i	i	i
CC1=C(C(=O)Nc2ccccc2C)C(c2cccnc2)n2nc(SCc3ccccc3)nc2N1 (stereo not drawn)
  i	i	i	i
CCC1(C)C(=O)C=C2C(=COC(C)=C2C)C1O (stereo not drawn)
  i	i	i	i
Cc1noc(C)c1NC(=O)Nc1ccc2c(c1)CC(=O)N([C@@H](C)CO)C[C@H](C)[C@@H](CN(C)S(=O)(=O)c1cccs1)O2
  i	i	i	i
CCN(CC(=O)Nc1ccccc1OC)S(=O)(=O)c1ccc(C)cc1
  i	i	i	i
Cc1noc(C)c1S(=O)(=O)Nc1ccc2c(c1)C(=O)N([C@@H](C)CO)C[C@H](C)[C@H](CN(C)Cc1ccncc1)OCCCC[C@H](C)O2
  i	i	i	i
COc1ccc(CN2C(C)Cc3cc(OC)c(OC)cc3C2C)cc1 (stereo not drawn)
  i	i	i	i
C[C@@H]1CN([C@H](C)CO)C(=O)c2cccc(NC(=O)Nc3ccc(F)cc3)c2O[C@H]1CN(C)C
  i	i	i	i
C[C@@H]1CN([C@@H](C)CO)C(=O)c2cccc(NC(=O)Nc3ccc4c(c3)OCO4)c2O[C@H]1CN(C)S(=O)(=O)c1ccccc1
  i	i	i	i
C[C@H]1CN([C@@H](C)CO)C(=O)c2cccc(NS(C)(=O)=O)c2O[C@H]1CN(C)S(=O)(=O)c1cn(C)cn1
  i	i	i	i
Cc1noc(C)c1NC(=O)N(C)C[C@H]1OCCCC[C@@H](C)Oc2ccc(NC(=O)c3ccncc3)cc2C(=O)N([C@H](C)CO)C[C@@H]1C
  i	i	i	i
Cc1cc(C(=O)Nc2cccc3c2O[C@@H](CN(C)C(=O)Nc2c(C)noc2C)[C@H](C)CN([C@H](C)CO)C3=O)n(C)n1
  i	i	i	i
COc1ccc(CN(C)C[C@H]2Oc3ccc(NC(=O)CCN4CCOCC4)cc3C(=O)N([C@@H](C)CO)C[C@@H]2C)cc1
  i	i	i	i
C[C@H](O)C1=CC2(CC[C@@H]3C(C(=O)O)=CO[C@@H](O[C@@H]4O[C@H](CO)[C@@H](O)[C@H](O)[C@H]4O)[C@@H]32)OC1=O (stereo partly drawn)
  i	i	i	x
C/C(=C/CC[C@@H](CO)[C@H]1CC[C@@]2(C)[C@@H]3CC[C@H]4C(C)(C)[C@@H](O[C@@H]5O[C@H](CO)[C@@H](O)[C@H](O)[C@H]5O)C[C@H](O)[C@@]45C[C@@]35CC[C@]12C)CO
  i	i	i	x
C[C@@H]1CCCCO[C@H](CN(C)Cc2ccc(C(=O)O)cc2)[C@H](C)CN([C@@H](C)CO)C(=O)c2cc(NC(=O)Nc3ccc(F)cc3)ccc2O1
  i	i	i	i
COc1ccccc1S(=O)(=O)N(C)C[C@@H]1OCc2cnnn2CCCC(=O)N([C@H](C)CO)C[C@H]1C
  i	i	i	i
C[C@H]1CCCCO[C@@H](CN(C)C(=O)Nc2ccc(F)cc2)[C@@H](C)CN([C@@H](C)CO)C(=O)c2cc(NC(=O)c3ccncc3)ccc2O1
  i	i	i	i

Already shown: an excerpt of the list.
Second line of a record – Myc binder	STAT3 SMM	mut p53 SMM	ID4 binder
COc1ccccc1S(=O)(=O)N(C)C[C@@H]1OCc2cnnn2CCCC(=O)N([C@H](C)CO)C[C@H]1C
  i	i	i	i
C[C@H]1CCCCO[C@@H](CN(C)C(=O)Nc2ccc(F)cc2)[C@@H](C)CN([C@@H](C)CO)C(=O)c2cc(NC(=O)c3ccncc3)ccc2O1
  i	i	i	i

(listing goes on)
Molecule	Myc binder	STAT3 SMM	mut p53 SMM	ID4 binder
Cc1noc(C)c1NC(=O)Nc1cccc2c1O[C@@H](CN(C)C)[C@@H](C)CN([C@@H](C)CO)C2=O	i	i	i	i
O=c1cc(O)cc(/C=C/c2ccc(O)c(O)c2)o1	i	i	i	i
C[C@H](CO)N1C[C@H](C)[C@H](CN(C)C(=O)Nc2ccc(C(F)(F)F)cc2)Oc2c(NS(=O)(=O)c3cn(C)cn3)cccc2C1=O	i	i	i	i
O=C(NCc1ccco1)c1cccc(S(=O)(=O)N2CCCCCC2)c1	i	i	i	i
COc1ccc(C(=O)CSc2n[nH]c(C)n2)cc1[N+](=O)[O-]	i	i	i	i
C[C@@H]1CN([C@@H](C)CO)C(=O)c2cccc(NC(=O)C3CCOCC3)c2O[C@H]1CN(C)C(=O)Nc1ccc2c(c1)OCO2	i	i	i	i
O=C(NCCCN1CCN(c2ccccc2[N+](=O)[O-])CC1)Nc1ccccc1F	i	i	i	i
CCCCCc1cc(OC)c2c(c1C(=O)O)OC(C)(C)C(O)C2 (stereo not drawn)	i	i	i	i
COc1ccccc1CN(C)C[C@H]1OCc2cn(nn2)CCCC(=O)N([C@@H](C)CO)C[C@H]1C	i	i	i	i
C[C@H](CO)N1C[C@H](C)[C@@H](CN(C)Cc2ccc(Cl)c(Cl)c2)Oc2c(NC(=O)c3ccncc3)cccc2C1=O	i	i	i	i

Rewritten as labelled records: entries from further up.
compound: C[C@@H]1CN([C@@H](C)CO)C(=O)c2cccc(NC(=O)C3CCOCC3)c2O[C@H]1CN(C)C(=O)Nc1ccc2c(c1)OCO2
  Myc binder: i
  STAT3 SMM: i
  mut p53 SMM: i
  ID4 binder: i
compound: COc1ccc(C(=O)CSc2n[nH]c(C)n2)cc1[N+](=O)[O-]
  Myc binder: i
  STAT3 SMM: i
  mut p53 SMM: i
  ID4 binder: i

Going on with the list.
Molecule	Myc binder	STAT3 SMM	mut p53 SMM	ID4 binder
C[C@H](CO)N1C[C@H](C)[C@H](CN(C)C(=O)Nc2cccc3ccccc23)Oc2ccc(N(C)C)cc2CC1=O	i	i	i	i
O=C(CC1NC2CCCCC2NC1=O)Nc1ccccc1 (stereo not drawn)	i	i	i	i
O=C(C1=C[C@@H](c2ccc3c(c2)Cc2ccccc2-3)C[C@@H](OCc2ccc(CO)cc2)O1)N1CCN(Cc2ccc3c(c2)OCO3)CC1	i	i	i	i
COCCOC(=O)N1C(=O)[C@@]2(c3cc(C#CC4=CCCCC4)ccc31)[C@H](c1ccc(O)cc1)N1[C@H](c3ccccc3)[C@H](c3ccccc3)OC(=O)[C@H]1[C@@H]2C(=O)NC[C@H](O)c1ccccc1	i	i	i	i

These rows are one share of the data (hit frequency here may not be typical).
